Source: PubChem BioAssay (National Center for Advancing Translational Sciences (NCATS))
Vaccinia Venus: qHTS for Stage-Specific Inhibitors of Vaccinia Orthopoxvirus: Venus Reporter Primary qHTS; Vaccinia virus Venus reporter expression, fluorescence; Potency, µM (doses to about 36.5 µM), without a hit: at the top dose activity change, negative = inhibition, most hits filed as inhibitors; hit rate 0.46% among 330,000; AID 720580, 2013; active means well fitted inhibition curve with a large enough effect; inconclusive means small, poorly fitted or top-dose-only effect; inactive means no such curve, though single readings can be large or run the other way; tested in A549 cells; also: nearly all actives have a fitted effect of over 30% in size; inactives centre near -10
Vaccinia mCherry: qHTS for Stage-Specific Inhibitors of Vaccinia Orthopoxvirus: mCherry Reporter Primary qHTS | hit rate 0.63% among 310,000 | Potency, µM (top dose mostly 36.5 µM), inactives show at the highest dose activity change, negative = inhibition, usual class: inhibitors | AID 720579, 2013 | Vaccinia virus mCherry reporter infection, fluorescence; about a quarter of the inactives have no number; active = well fitted inhibition curve with a large enough effect; inconclusive = small, poorly fitted or top-dose-only effect; inactive = no such curve, though single readings can be large or run the other way; tested in A549 cells; also: nearly all actives have a fitted effect of over 35% in size; inactives centre near -10
* = called active by the depositor; & = joins results of further samples; [ ] = dose if it differs, or a comment. % is scaled to controls: 0 for no effect and ±100 for the full control effect; potency is read from the fitted curve at half-maximal effect.

CCCC(=O)Nc1ccc(C(=O)NCC(=O)OCC)cc1 was read as Vaccinia Venus -8.6% and Vaccinia mCherry -16.4%.
`C=CCN1C=CC=C/C1=C1\SC(=S)N(C)C1=O` gave Vaccinia Venus 2.1% and Vaccinia mCherry 3.0%.
`Cc1ccc(CNC(=O)CCc2c(C)nc3c(c(C)nn3-c3ccccc3)c2C)cc1` gave Vaccinia Venus -9.9% and Vaccinia mCherry -13.8%.
COCC(=O)Nc1cc(C(=O)N2CCC(c3ccccc3)CC2)cc2nc(-c3ccccc3)n(C)c12 was read as Vaccinia Venus -1.9% and Vaccinia mCherry inactive.
COc1cccc(C(C(=O)NC2CCCC2)N(CCC(C)C)C(=O)CCC(=O)Nc2cc(C)on2)c1 (stereo not given) was read as Vaccinia Venus -0.1% and Vaccinia mCherry inactive.
COC(=O)c1cc2ccccc2n1S(=O)(=O)c1ccccc1 was read as Vaccinia Venus -12.7% and Vaccinia mCherry -19.6%.
For Cc1ccccc1NC(=O)CCS(=O)(=O)c1ccc(Br)s1 the results were Vaccinia Venus -10.4% and Vaccinia mCherry -12.8%.
For COc1ccccc1CNC(=O)c1cnn(-c2nccc(-c3cccs3)n2)c1C the results were Vaccinia Venus -12.9% and Vaccinia mCherry -8.6%.
Screening COc1ccc(C2NC(=O)NC(C)=C2C(=O)OC2CCCCC2)cc1OC (stereo not given) returned Vaccinia Venus -7.2% and Vaccinia mCherry inactive.
For COc1ccc2nc(SCC(=O)Nc3nonc3C)[nH]c2c1 the results were Vaccinia Venus 0.8% and Vaccinia mCherry -2.5%.
Screening O=C(Nc1cccc(Cl)c1)c1nc[nH]c1C(=O)NCCCNC(=O)c1[nH]cnc1C(=O)Nc1cccc(Cl)c1 returned Vaccinia Venus inconclusive and Vaccinia mCherry inconclusive.
Screening Cc1nn(C(C)CC(=O)O)c(C)c1C (stereo not given) returned Vaccinia Venus 3.3% and Vaccinia mCherry -13.2%.
For COC(=O)c1c(NC(=O)C2CC=CCC2C(=O)O)sc(C(N)=O)c1C (stereo not given) the results were Vaccinia Venus 2.1%.
`CCOc1ccccc1CNCc1cccn1-c1nnc(N2CCN(c3ccccc3)CC2)s1` gave Vaccinia Venus inconclusive and Vaccinia mCherry inconclusive.
`CC[C@@H]1C=C(C(=O)O)[C@H](c2ccc(Cl)cc2)N1S(=O)(=O)c1ccc(C)cc1` gave Vaccinia Venus 0.0% and Vaccinia mCherry inactive.
Screening Cc1ccc(-n2c(/C=C/c3ccc(Br)s3)nc3ccccc3c2=O)cc1C returned Vaccinia Venus -22.7% and Vaccinia mCherry -19.1%.
Screening O=C(Nc1ccccc1-c1cn2c(CN3CCNCC3)csc2n1)c1cnc2ccccc2n1 returned Vaccinia Venus inconclusive and Vaccinia mCherry inconclusive.
COc1cc(/C=N/NC(=O)c2cc(-c3ccccc3OC(C)C)nc3ccccc23)ccc1O was read as Vaccinia Venus 7.7% and Vaccinia mCherry 12.6µM*.
COCCS(=O)(=O)N(Cc1ccccc1)[C@H](C(=O)OC)C(C)C was read as Vaccinia Venus -5.2% and Vaccinia mCherry inactive.
`Cn1c(NC(=O)CCc2ccccc2)cc(=O)n(C)c1=O` gave Vaccinia Venus -27.1% and Vaccinia mCherry inactive.
CCOC(=O)c1c(C)[nH]c(C)c1C(=O)COC(=O)CCOc1ccccc1OC was read as Vaccinia Venus -5.1% and Vaccinia mCherry -14.6%.
Screening CCCc1nc2nc(C)c(NS(=O)(=O)c3ccc(C)c(C)c3)c(=O)n2[nH]1 returned Vaccinia Venus -0.1%&-2.1% and Vaccinia mCherry 3.4%.
CCOc1cc(OCC)cc(C(=O)N2CCC[C@H]2C(=O)N2CCC[C@H]2C(=O)N(C)Cc2ccccc2)c1 was read as Vaccinia Venus 1.4% and Vaccinia mCherry inactive.
For CCS(=O)(=O)N1Cc2ccccc2CC1C(=O)Nc1nccs1 (stereo not given) the results were Vaccinia Venus -3.0% and Vaccinia mCherry -14.2%.
Screening COc1ccc(CCNC(=O)C(=O)NCC2OCCN2S(=O)(=O)c2ccc(F)cc2)cc1OC (stereo not given) returned Vaccinia Venus -13.4% and Vaccinia mCherry inconclusive.
`CCOc1ncccc1C(=O)OCC(=O)Nc1c(C)cccc1C` gave Vaccinia Venus 1.1% and Vaccinia mCherry -2.1%.
Screening Cc1ccc(NC(=O)CN2C(=O)NC(C)(C)C2=O)cc1S(=O)(=O)N1CCCCCC1 returned Vaccinia Venus -4.3% and Vaccinia mCherry inactive.
`CC(C)CCNc1nc2c(c(=O)[nH]c(=O)n2C)n1CC(O)COC(C)C` (stereo not given) gave Vaccinia Venus -14.9%.
Screening CC(=O)Nc1ccc(NC(=O)C2c3ccccc3Oc3ccccc32)cc1 returned Vaccinia Venus -11.3% and Vaccinia mCherry -17.0%.
Cc1c(CNC2CCCCCC2)c(C(=O)O)c(C)n1Cc1ccc(F)cc1 was read as Vaccinia Venus 3.6% and Vaccinia mCherry -2.9%.

A draw from above in order of molecular weight, smallest number first.
`CCOc1ncccc1C(=O)OCC(=O)Nc1c(C)cccc1C` gave Vaccinia Venus 1.1% and Vaccinia mCherry -2.1%.
COCCS(=O)(=O)N(Cc1ccccc1)[C@H](C(=O)OC)C(C)C was read as Vaccinia Venus -5.2% and Vaccinia mCherry inactive.
`CC(C)CCNc1nc2c(c(=O)[nH]c(=O)n2C)n1CC(O)COC(C)C` (stereo not given) gave Vaccinia Venus -14.9%.
Cc1c(CNC2CCCCCC2)c(C(=O)O)c(C)n1Cc1ccc(F)cc1 was read as Vaccinia Venus 3.6% and Vaccinia mCherry -2.9%.
Screening COc1ccc(CCNC(=O)C(=O)NCC2OCCN2S(=O)(=O)c2ccc(F)cc2)cc1OC (stereo not given) returned Vaccinia Venus -13.4% and Vaccinia mCherry inconclusive.

(next part)
CC(NC(=O)COc1ccccc1)C(c1ccccc1)N1CCN(C)CC1 (stereo not given) was read as Vaccinia Venus -8.9%.
For CCOc1ccc(Nc2ncnc3onc(-c4ccc(Cl)cc4)c23)cc1 the results were Vaccinia Venus -1.3% and Vaccinia mCherry -12.1%.
For CCCn1ccc2c(OCC(=O)NCc3ccccc3Cl)cccc2c1=O the results were Vaccinia Venus -12.3% and Vaccinia mCherry -20.1%.
`CCCN(CC(=O)Nc1ccccc1C)C(=O)COc1ccc2c(c1)CCC2` gave Vaccinia Venus -18.3% and Vaccinia mCherry -25.8%.
COC(=O)c1sc2ccccc2c1C(=O)OC was read as Vaccinia Venus -2.2% and Vaccinia mCherry inactive.
CCCc1c(C(=O)N/N=C(\C)c2cccnc2)nnn1-c1nonc1N was read as Vaccinia Venus -17.6% and Vaccinia mCherry -4.7%.
Cc1[nH]c2ccccc2c1/C=N/Nc1nc(Nc2ccc(F)cc2)nc(N2CCOCC2)n1 was read as Vaccinia Venus -18.1% and Vaccinia mCherry -20.3%.
Screening O=C(NC(=S)Nc1ccc(Oc2ccc(Cl)cc2)cc1)c1ccccc1 returned Vaccinia Venus -29.2% and Vaccinia mCherry -7.9%.
For COc1ccc(C2=NN(C(=O)CN3CCCC3)C(c3ccc(OC)cc3)C2)cc1 (stereo not given) the results were Vaccinia Venus -7.2%[7.34 µM] and Vaccinia mCherry -6.9%[7.34 µM].
COc1ccc(-c2nc(CCNC(=O)c3ccc(Br)o3)cs2)cc1 was read as Vaccinia Venus -9.8%&-9.2% and Vaccinia mCherry -9.2%&-24.8%.
CCn1c(NCc2c[nH]c3ccccc23)nc2ccccc21 was read as Vaccinia Venus -14.2% and Vaccinia mCherry -29.7%.
`CC(=O)c1cccc(NC(=O)c2ccc(OC3CSC3)cc2)c1` gave Vaccinia Venus -10.4% and Vaccinia mCherry inactive.
`CC(=O)N=c1c(C#N)cc2c(=O)n3cccc(C)c3nc2n1CCCOC(C)C` gave Vaccinia Venus -5.9% and Vaccinia mCherry inconclusive.
For O=Cc1c(N2CCC3(CC2)OCCO3)nc2ccccn2c1=O the results were Vaccinia Venus 25.5% and Vaccinia mCherry 4.3%.
`CN(C)c1ccc(C(c2ccc(N(C)C)cc2)c2ccc([N+](=O)[O-])cc2)cc1` gave Vaccinia Venus -11.0% and Vaccinia mCherry inconclusive.
CCN(CC)CCn1c(=S)[nH]c2cc(Cl)ccc2c1=O was read as Vaccinia Venus -8.2% and Vaccinia mCherry -6.7%.
For Cc1ccc(CNS(=O)(=O)c2cc(Br)cc3c2N(C(=O)C2CC2)CC3)cc1 the results were Vaccinia Venus -2.2% and Vaccinia mCherry -4.8%.
N#C/C(=C\c1cccnc1)c1nc2ccccc2[nH]1 was read as Vaccinia Venus -16.4% and Vaccinia mCherry -17.2%.
Cc1ccc(-c2nc(C3CCN(S(=O)(=O)c4ccc(C(C)(C)C)cc4)CC3)no2)cc1 was read as Vaccinia Venus -17.6% and Vaccinia mCherry inconclusive.
For O=C(Nc1cccc(S(=O)(=O)N2CCCCCC2)c1)C1CCC1 the results were Vaccinia Venus -26.7% and Vaccinia mCherry -14.6%.
For CCNC(=S)N1CCC(c2nc3ccccc3s2)CC1 the results were Vaccinia Venus -21.7% and Vaccinia mCherry -18.0%.
CCOC(=O)CSc1nc2cc(C(=O)N3CCC(C(N)=O)CC3)ccc2c(=O)n1C1CCCCC1 was read as Vaccinia Venus -5.9% and Vaccinia mCherry -14.4%.
`O=S(c1ccccc1)C(c1ccccc1)c1ccccc1` (stereo not given) gave Vaccinia Venus -9.5% and Vaccinia mCherry inactive.
For CC(=O)c1ccc(N(C(=O)CNC(=O)c2ccco2)C(C(=O)NC2CCCC2)c2ccncc2)cc1 (stereo not given) the results were Vaccinia Venus 0.8% and Vaccinia mCherry 2.2%.
Cc1ccc(NC(=O)COc2ccc(-n3ccnc3)cc2)cc1Cl was read as Vaccinia Venus -29.6% and Vaccinia mCherry inconclusive.
COCCNC(=O)c1cc2c(Cl)nc3ccc(C)cc3c2s1 was read as Vaccinia Venus 2.6% and Vaccinia mCherry 2.8%.
`CCOc1ccc(N=C(C)C2=C(O)c3ccccc3C2=O)cc1` gave Vaccinia Venus -18.8% and Vaccinia mCherry -0.8%.
For O=c1[nH]c(-[n+]2ccccc2)c(/C=N/NC([S-])=Nc2ccccc2)s1 the results were Vaccinia Venus -2.1% and Vaccinia mCherry -10.4%.
For COc1ccccc1N=NC1C(=O)N(C(N)=S)N=C1C (stereo not given) the results were Vaccinia Venus -24.7% and Vaccinia mCherry -13.1%.
Screening O=C(Nc1nc(-c2cc(Cl)sc2Cl)cs1)c1ccc(Br)s1 returned Vaccinia Venus -18.0% and Vaccinia mCherry -15.9%.
For COc1ccc(CNC(=O)C2CCCN(S(=O)(=O)c3ccc4c(c3)CCCN4C(C)=O)C2)cc1 (stereo not given) the results were Vaccinia Venus -21.4% and Vaccinia mCherry -17.6%.
Screening CCOc1ccc(Br)cc1S(=O)(=O)Nc1ccccc1N1CCOCC1 returned Vaccinia Venus -28.7% and Vaccinia mCherry inconclusive.
Screening Cc1ccc(C(=O)c2oc3ccccc3c2NC(=O)c2cc(-c3cc(C)ccc3O)n[nH]2)cc1 returned Vaccinia Venus -14.4%[7.34 µM] and Vaccinia mCherry -11.2%[7.34 µM].
`O=C(CCc1nc2sc3c(c2c(=O)[nH]1)CCCC3)NCCc1ccccc1` gave Vaccinia Venus -14.6% and Vaccinia mCherry -17.6%.
`CC(C)CNC(=O)C1(C)CCCN1C(=O)CCc1cccs1` (stereo not given) gave Vaccinia Venus -4.7% and Vaccinia mCherry 6.7%.
Screening CCC(C)(C)NC(=O)C(c1ccccn1)N(C(=O)c1csnn1)c1ccc(C)cc1 (stereo not given) returned Vaccinia Venus 3.6% and Vaccinia mCherry inactive.
`COc1ccc(C2CC(=O)c3c([nH]c(C(=O)OC4CCC(C)CC4)c3C)C2)cc1OC` (stereo not given) gave Vaccinia Venus -9.3% and Vaccinia mCherry -3.4%.
`COc1ccc(C(c2nnnn2-c2c(C)cccc2C)N2CCC3(CC2)C(=O)NCN3c2ccccc2)cc1` (stereo not given) gave Vaccinia Venus inconclusive and Vaccinia mCherry -13.9%.
COc1ccc(N2C(=O)/C(=C/N(C)C)NC2=S)cc1 was read as Vaccinia Venus 5.3% and Vaccinia mCherry -0.3%.
Screening CCOC(=O)N1CCN(C(=O)Cn2ncc3c2-c2ccccc2OC3)CC1 returned Vaccinia Venus -11.9% and Vaccinia mCherry -9.1%.
For Cc1nn(-c2ccccc2)c(Cl)c1C1C(C#N)=C(N)Oc2c1c(C)nn2-c1ccccc1 (stereo not given) the results were Vaccinia Venus -19.7%.
`Cc1cc(SCn2nnc3ccccc3c2=O)nc2ccccc12` gave Vaccinia Venus -10.4% and Vaccinia mCherry -12.3%.
Screening O=C(O)Cc1c(C(=O)O)nnn1-c1cccc(C(F)(F)F)c1 returned Vaccinia Venus 0.0% and Vaccinia mCherry inactive.
`CCc1noc(C)c1C(=O)OC(C)C(=O)Nc1ccccc1OC` (stereo not given) gave Vaccinia Venus -10.8% and Vaccinia mCherry -11.3%.
Screening Cc1[nH]c(=S)c(C#N)c2c1CCCC2 returned Vaccinia Venus -15.5% and Vaccinia mCherry inactive.
O=C(Nc1cccc2nsnc12)c1ccc(-c2ccc(Br)cc2)o1 was read as Vaccinia Venus inconclusive and Vaccinia mCherry inconclusive.
`CCC(=O)Oc1ccc(C(=O)Nc2cccc(NC(=O)c3ccco3)c2)cc1` gave Vaccinia Venus -7.5% and Vaccinia mCherry inactive.
For Cc1ccc(CNCC(O)c2ccccc2)s1 (stereo not given) the results were Vaccinia Venus -4.7% and Vaccinia mCherry -2.6%.

Hits appear at their usual frequency. About 0.82% of those tested had a hit in this group.
